gsp antagonist – antagonizes gsp, the McCune-Albright syndrome mutation; gsp-mutant cells, cAMP HTRF, 30 min; control for the full effect not named in the record; Potency, µM (top dose mostly 76.9 µM), for inactives: at the highest dose activity change, negative = inhibition, usual class: inhibitors; 340,000 compounds, 0.4% hits; AID 624288; active = falling curve of any shape with a large fitted effect; inconclusive = falling curve, mostly with a smaller effect; inactive = flat or rising curve; cell line not stated here;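 note: intracellular cAMP measured with PDE inhibitor Ro 20-1724 present during compound exposure; potency is the fitted concentration of half-maximal effect; % is set by controls: 0 for no effect and ±100 for the full control effect; nearly all actives have a fitted effect of over 65% in size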
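G418-selected cells were plated in DMEM/10% FBS for 16-24 h at 37C, then treated with compounds plus the PDE inhibitor […] (300 uM solution added) for 30 min at 37C. Intracellular cAMP was measured by HTRF after 30 min lysis at room temperature.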
ClpP mod – qHTS Assay for Activators of ClpP. ATP-dependent Clp protease proteolytic subunit (Bacillus subtilis (strain 168)), P80244. AID 651965, 2013. 340,000 compounds, 1.9% hits. Potency, µM (series often up to 57.5 µM), for inactives: top-dose activity change, negative = active. purified B. subtilis ClpP, FRET peptide cleavage, 20 min; active = well fitted falling curve with a large enough effect; inconclusive = small, poorly fitted or top-dose-only effect; inactive = no such curve, though single readings can be large or run the other way; note: potency is the fitted concentration of half-maximal effect; the source files actives as falling curves though it sought activators and does not explain the sign; nearly all actives have a fitted effect of over 65% in size; many hits overshoot -100%
Target sequence (P80244 whole entry, looked up): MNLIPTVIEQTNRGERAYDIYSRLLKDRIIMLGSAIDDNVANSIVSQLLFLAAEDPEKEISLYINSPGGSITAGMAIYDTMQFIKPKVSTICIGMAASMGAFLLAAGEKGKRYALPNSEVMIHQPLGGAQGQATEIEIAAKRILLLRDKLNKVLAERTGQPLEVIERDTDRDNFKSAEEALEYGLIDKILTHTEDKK
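Buffer: 100 mM Tris/HCl pH8, 100 mM KCl, 0.05% low protease BSA, 2.5% glycerol, 0.01% Tween-20. ClpP 10 microg/mL final; 20 min RT; delta FRET normalized to ADEP and DMSO controls.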
PINK1 expr mod – PINK1 expression modulation; PINK1 immunofluorescence, high-content cytometry, 24 h; Potency, µM (series often up to 76.6 µM), without a hit: at the top dose activation (PINK1 increase), hits mostly activators; 410,000 compounds, 0.2% hits; AID 624263; active = well fitted activation curve with a large enough effect; inconclusive = small, poorly fitted or top-dose-only effect; inactive = flat fitted curve, though single readings scatter; cell line not stated here;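 note: potency is the fitted concentration of half-maximal effect; % of control where 0% means no effect; nearly all actives have a fitted effect of over 65% in size; a mitochondrial uncoupler was the plate control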
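Readout is PINK1 immunofluorescence, quantified alongside mitochondrial, cell and nuclear markers by laser-scanning microplate cytometry. Cells from a stable line were exposed to compound titrations (5 concentrations) for 24 hours, with CCCP controls.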
Menin-MLL FL inh – displaces fluorescein MLL peptide from human menin; 290,000 tested, under 10 active; FP activity change, % at 61.4 µM; Fluorescence polarization, fluorescein-MLL peptide displacement from menin; AID 1766; inconclusive = falling polarisation curve, or a change in total fluorescence; inactive = total fluorescence flat and polarisation flat or rising; no compound was filed as active; the % refers to the polarisation; negative = inhibition;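 note: % of control where 0% means no effect; inhibitors lower the polarisation; unlabelled MLL peptide was the positive control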
gsp ag – gsp mutant agonism; 340,000 compounds, 0.13% hits; gsp mutant cells, cAMP HTRF, 30 min; control for the full effect not named in the record; AID 624287; Potency, µM (highest dose often 76.9 µM), for inactives: top-dose activation (cAMP increase), actives largely listed as activators; active = well fitted activation curve with a large enough effect; inconclusive = small, poorly fitted or top-dose-only effect, or another doubt; inactive = no such curve, though single readings can be large or run the other way; cell line not stated here;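 note: phosphodiesterase inhibitor Ro 20-1724 added with compounds to block cAMP breakdown; potency is the fitted concentration of half-maximal effect; nearly all actives have a fitted effect of over 60% in size; about a fifth of the inactives were tested at one dose only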
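Cells stably selected in G418 were plated at 2000/well, grown 16-24 hr, then given compounds in DMSO with the PDE inhibitor […] (300 uM solution added) for 30 min at 37C; cAMP was read by HTRF.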
D2 ag – activates the human D2 dopamine receptor; P14416; DiscoveRx PathHunter D2 beta-arrestin, luminescence, 90 min; 100% = 57 uM dopamine signal; activation, % (no concentration beside the values); 360,000 compounds, 0.084% hits; in the data active = activation above about 40%; inconclusive = about 15% to 40%; inactive = below about 15%; note: compound concentration not given in the record; the text of the record calls up to 30% inactive
Target sequence (P14416 whole entry, looked up): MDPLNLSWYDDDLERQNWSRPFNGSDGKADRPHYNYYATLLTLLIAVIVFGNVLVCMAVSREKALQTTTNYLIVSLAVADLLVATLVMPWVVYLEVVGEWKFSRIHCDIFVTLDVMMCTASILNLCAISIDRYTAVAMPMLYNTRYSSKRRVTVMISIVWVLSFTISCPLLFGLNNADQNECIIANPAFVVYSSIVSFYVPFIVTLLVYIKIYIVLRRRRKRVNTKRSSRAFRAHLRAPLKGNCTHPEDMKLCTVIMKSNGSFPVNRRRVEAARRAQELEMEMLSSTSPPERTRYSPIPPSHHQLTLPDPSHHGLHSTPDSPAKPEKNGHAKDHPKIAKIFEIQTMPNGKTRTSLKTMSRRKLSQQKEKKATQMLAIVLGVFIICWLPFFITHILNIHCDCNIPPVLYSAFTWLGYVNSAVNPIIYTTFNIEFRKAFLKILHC
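Agonist mode: compounds alone added to overnight-plated D2 PathHunter cells for 90 min at 37 C, with 57 uM final dopamine (EC100) defining full response. Beta-arrestin recruitment detected by chemiluminescent reagent, read after 1 h at ambient temperature.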
Sfp PPTase inh – inhibitors of Bacillus subtilis Sfp phosphopantetheinyl transferase | 310,000 compounds, 3.5% hits | Potency, µM, for the others: max response, negative = inhibition, most hits filed as inhibitors | Q9F4F7 | Biochemical Sfp PPTase activity, qHTS; active = well fitted inhibition curve with a large enough effect; inconclusive = small, poorly fitted or top-dose-only effect, or another doubt; inactive = no such curve, though single readings can be large or run the other way;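 note: the enzyme is Sfp with the accession as filed and its product quenches rhodamine fluorescence; potency is the fitted concentration of half-maximal effect; 0% = enzyme reaction without inhibitor and -100% = no enzyme wells; top concentration of the series not given in the record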
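Compounds were incubated with enzyme (final 15 nM) for 15 min at room temperature before substrate addition started the reaction. Fluorescence at 525 nm excitation, 598 nm emission was recorded immediately and after 30 minutes.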
* hit, by the source's call; ? = inconclusive; nt = not tested or not shown; & = joins results of further samples; [ ] = another dose, or the depositor's remark.

SMILES | gsp antagonist | ClpP mod | PINK1 expr mod | Menin-MLL FL inh | gsp ag | D2 ag | Sfp PPTase inh
CC1CCN(c2nc(CN3CCCCC3)nc3scc(-c4ccccc4)c23)CC1 | -6% | -2.0% | ? | -0.6 | 15%[15.4 µM] | -3.2 | -9%
Cc1ccc(/C=C2\SC(=S)N(CC3CCCO3)C2=O)o1 (stereo not drawn) | 0% | nt | -1.1% | ? | 5%[15.4 µM] | ? | 10µM*
COc1ccc(CCNC(=O)CSCc2ccc([N+](=O)[O-])cc2)cc1 | 1% | 3.2% | -0.6% | 4.5 | -4% | 2.0 | 12%
O=C(CN1CCOCC1)NN1CC(=O)N(c2ccc(Cl)cc2)CC1=O | 8% | nt | -1.9% | 5.5 | -11%[15.4 µM] | 0.3 | 12%
OCCNC(=S)NCCc1ccccc1 | 15% | 3.8% | -0.3% | 7.4 | -41%[inhibitor] | -1.4 | 0%
CCNC(=O)COC(=O)c1ccc(-n2nc(C)cc2C)cc1 | 8% | 2.6% | 3.0% | 0.7 | -8%[15.4 µM] | -1.7 | 26%
CNC(=O)c1csc(-c2ccc(Cl)cc2)n1 | 0% | nt | 0.1% | -6.7 | 18%[15.4 µM] | -3.4 | -3%
COc1ccc(Nc2nc3ccccc3c(=O)[nH]2)cc1 | 1% | 3.5% | 0.1% | 3.9 | -14% | -0.4 | 16%
Cc1ccccc1NS(=O)(=O)c1cc(C(=O)Nc2ccccc2-c2ccccc2)ccc1Cl | -10% | -8.6% | 1.5%[38.3 µM] | -0.5 | 13% | -0.6 | 14%
CC(C)(C)NC(=O)COC(=O)C1c2ccccc2Oc2ccccc21 | -5% | nt | -2.2% | -0.1 | ? | 1.3 | 14%
CCOC(=O)c1cnn(-c2c(Cc3ccccc3)c(C)nc3c(-c4ccccc4)c(C)nn23)c1N | 6% | 0.5% | 22%[38.3 µM] | -0.3 | -26% | -3.1 | 18%
CCOC(=O)c1cnc(-c2ccccc2)nc1Oc1ccc(Cl)c(Cl)c1 | 3% | 1.9% | 6.5% | -2.8 | 9% | -0.5 | 1%
Cc1cccc(CNc2ncncc2-c2ccc(C(=O)N(C)C)cc2)c1 | nt | nt | 7.9% | 2.3 | nt | nt | 2%
CCOC(=O)C1CCN(S(=O)(=O)c2cccc(-c3cn4cccc(C)c4n3)c2)CC1 | ? | ? | -1.7% | 2.9 | -11% | -0.5 | 4%
CCN(CC)S(=O)(=O)c1ccc2oc(SCC(=O)NCc3ccccc3)nc2c1 | -23% | 2.0% | 4.1% | 3.4 | 1% | -3.9 | 3%
CC(=O)Nc1ccc2nc(NC(=O)c3ccco3)sc2c1 | 2% | -2.7% | 1.3% | 2.4 | 1% | -1.6 | 2%
CC(=O)Nc1cc2c(cc1Cl)-c1ccccc1C2O (stereo not drawn) | -4% | nt | -0.1% | nt | -8% | 1.3 | nt
CCOC(=O)c1c(C)[nH]c(C(=O)OCC(=O)N(CC(C)C)C2CCS(=O)(=O)C2)c1C (stereo not drawn) | 3% | 0.6% | 0.2% | nt | -9% | -5.8 | nt
CN1/C(=C\C(=O)c2cccc([N+](=O)[O-])c2)Sc2ccccc21 | -5% | nt | 1.2% | 0.0 | 10%[15.4 µM] | -6.3 | -4%
O=C(O)c1ccc(Nc2ccc3nonc3c2[N+](=O)[O-])cc1 | 9% | -0.1% | 1.3% | -1.8 | 5%[15.4 µM] | 14 | 12%
COc1ccc([C@@H]2[C@@H]3C(=O)N(C(C)(C)C)C(=O)[C@@H]3[C@]3(C)C(=O)N(c4ccc(C)cc4)C(=O)N23)cc1 | 8% | 1.6% | 1.0% | -0.3 | -1% | -0.4 | 3%
Cc1cc(F)c(F)c(C(=O)N2C(C)CCCC2C)c1Cl (stereo not drawn) | 0% | -0.1% | 0.1% | 0.7 | -1% | -2.5 | 21%
O=S(=O)(Nc1c(O)ccc2ccccc12)c1ccc(F)cc1 | 2% | nt | -0.6% | nt | -1%[15.4 µM] | ? | nt
CCOC(=O)c1cc(-c2ccc(F)cc2)nc2c1c(=O)[nH]c(=O)n2Cc1ccccc1 | 8% | nt | 1.3% | 1.3 | -11%[15.4 µM] | -2.1 | -3%
COC1=C(Br)C(=O)c2nc(C)ccc2C1=O | nt | 38% | 11% | nt | 3% | 9.2 | nt

The list continues:
SMILES | gsp antagonist | ClpP mod | PINK1 expr mod | Menin-MLL FL inh | gsp ag | D2 ag | Sfp PPTase inh
N#Cc1ccc(NC(=O)C2=COCCO2)cc1 | 6% | -2.5% | -1.7% | nt | 7% | -3.2 | nt
CCOC1=C2CN(S(=O)(=O)c3ccc(C)cc3)[C@H](c3ccccc3)C[C@H]2n2c(=O)n(-c3ccccc3)c(=O)n2C1 | nt | -0.4% | 0.4% | nt | nt | 2.6 | nt
CN(C)CCCNc1ncnc2c1cnn2Cc1ccccc1Cl | 14% | nt | -1.4% | 7.6 | 18%[15.4 µM] | -5.6 | 5%
Cc1ccc(NS(=O)(=O)c2ccc3c(c2)NC(=O)CCS3)cc1C | 9% | 0.7%&-0.7% | 0.3%&-1.5% | nt | 1% | 3.1 | 14%
CCN(CC)Cc1cc(CCNC(=O)c2ccc(Cl)cc2)ccc1O | -5% | -0.2% | -0.9%[38.3 µM] | -0.1 | -22% | -3.4 | 23%
COc1ccc(OC(=O)CN2C(=O)C3C4CCC(C4)C3C2=O)cc1 (stereo not drawn) | 4% | -1.8% | 0.8% | 1.8 | 7% | 0.9 | 12%
Cc1cc(N/N=C/c2cccc(F)c2)nc(NCc2ccccc2)n1 | -5% | 1.1% | 13% | -0.5 | -17%[15.4 µM] | -0.9 | ?
CC(=O)Nc1ccc(-c2ccnc3c2CC(C)(C(=O)Nc2ccc(F)c(Cl)c2)O3)cc1 (stereo not drawn) | nt | 4.2% | 0.0% | nt | nt | 4.2 | nt
CC(=O)N(c1ccc(C)cc1)c1nc(C)cc(C)c1C#N | 4% | nt | -2.9% | 18 | 0% | 5.1 | -20%
Fc1ccc(N2CCN(Cc3cn[nH]c3-c3ccccc3)CC2)cc1 | 17% | nt | 0.7% | 0.9 | 23%[15.4 µM] | 0.9 | -27%
CCOC(=O)c1cc2c(ccn2C)n1CC(=O)N1CCN(c2ccc(F)cc2)CC1 | -17% | -12% | 0.1%[38.3 µM] | -0.1 | -27% | -0.4 | 7%
S=C(NCc1ccco1)N1CCN(Cc2ccc(Cl)cc2Cl)CC1 | -3% | -2.9% | 0.1% | 3.6 | 27% | -3.8 | 6%
COc1ccc(-c2noc(CCC(=O)N3CCN(c4ccccc4F)CC3)n2)cc1 | -15% | -1.7% | 4.1% | nt | nt | 1.7 | nt
CC(=O)c1cccc(NC(=O)N2CCCC2C(=O)Nc2ccccc2C)c1 (stereo not drawn) | 9% | 0.9% | 0.2% | -0.2 | -2%[15.4 µM] | -6.2 | 12%
Cc1csc(=NC(=O)c2ccccc2)n1C | -6% | -4.5% | -0.1% | -0.1 | 4% | 8.0 | 18%
COc1ccc(OC)c(CCNC(=O)C(C)n2nc(C)c3c(C)n(-c4ccc(C)cc4)nc3c2=O)c1 (stereo not drawn) | ? | -1.0%&-3.2% | 1.2%&2.3% | 1.3 | -16% | 8.0 | 7%
Cc1nc2c(OCc3cccc(Cl)c3)cccn2c1N(C)CC1CC1 | nt | -11% | ? | nt | nt | -3.3 | nt
CC(O)(c1ccccc1)C(c1ccccc1)C1CCCCN1 (stereo not drawn) | 13% | -0.8% | -2.0% | 2.3 | ? | -0.9 | 19%
O=C(CN(Cc1ccccc1Cl)C(=O)c1csnn1)NC1CCCC1 | 8% | -1.6% | 0.5% | nt | 4%[15.4 µM] | -2.3 | 4%
Cc1ccc(CNC(=O)CCC(=O)N2CC(C)Oc3ccc(Cl)cc32)cc1 (stereo not drawn) | ? | 2.1% | 1.0% | -1.1 | 2% | -1.3 | 8%
O=C1CSC(=S)N1/N=C/c1c(F)cccc1F | -6% | nt | -1.4% | 6.6 | 6% | -2.0 | ?
C=CCn1c(-c2ccccc2)cc(SC)c(C#N)c1=O | ? | nt | 8.6% | 0.2 | 21%[15.4 µM] | -2.4 | -6%
CCC1Sc2ccccc2N(CC(=O)NCc2ccccc2OC)C1=O (stereo not drawn) | -6% | -0.5% | -4.2%[38.3 µM] | 0.9 | -33%[inhibitor] | -2.0 | 14%
O=C(Oc1cncc(Cl)c1)c1sccc1Cl | 2% | nt | -0.2% | nt | -1%[15.4 µM] | -0.6 | nt
COC(=O)Cc1csc(NC(=O)CSc2nnc3ccccn23)n1 | 7% | -2.3% | 1.3% | 0.0 | 4% | 0.5 | 5%

Remaining list, next part.
SMILES | gsp antagonist | ClpP mod | PINK1 expr mod | Menin-MLL FL inh | gsp ag | D2 ag | Sfp PPTase inh
O=C(CN(C(=O)CNS(=O)(=O)c1ccc(F)cc1)c1cccc(F)c1)NCC1CCCO1 (stereo not drawn) | 3% | nt | -2.0% | 1.3 | -12% | -2.4 | 11%
Cc1cc(NC(=O)CCC(=O)N(Cc2ccco2)C(C(=O)NCC2CCCO2)c2ccncc2)no1 (stereo not drawn) | 4% | nt | 2.8% | -0.2 | -1%[15.4 µM] | -0.7 | 15%
CCOC(=O)c1coc(C(=O)OCC)c1C(=O)OCC | 11% | nt | -1.1% | nt | -21% | -2.1 | nt
Cc1ccc(C(=O)N/C(=C\c2ccccc2)C(=O)OCc2ccccc2)cc1 | -12% | -0.2% | 0.0% | 0.6 | -4%[15.4 µM] | -4.5 | 6%
CC12CCCC[C@@H]1CCC1C2CCC2(C)C1CC[C@@]2(O)CNCCO (stereo partly drawn) | 11% | nt | -2.7% | 2.8 | 0%[15.4 µM] | 2.0 | 13%
Cc1ccc(N2C(=O)[C@@H]3[C@H](C2=O)C2c4ccccc4C=CN2[C@@H]3C(=O)c2ccco2)c(C)c1 (stereo partly drawn) | -8% | -4.8% | 0.2% | ? | -34%[inhibitor] | -2.6 | ?
O=C(NCC1CCCN(C2Cc3ccccc3C2)C1)c1cccs1 (stereo not drawn) | 1% | -1.2% | 2.2% | nt | -42%[inhibitor] | -1.4 | 7%
COC(=O)c1ccc2c(c1)N(C)CCS2 | 8% | -18% | 0.9% | 4.4 | ? | -1.3 | 9%
